High-throughput results (PubChem BioAssay)
rRNA inh HTS – selective bacterial rRNA inhibition in E. coli. E. coli WT GFP vs humanized-ribosome RFP mutants, fluorescence, 24 h; stronger effect = lower value; DMSO median 0, no signal -100. GFP signal change (wild-type ribosome), % (test concentration not listed). hit rate 1.6% among 350,000;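 active = significant combined selectivity score with lowered wild-type GFP, culture density cut under 30%, mutant RFP and density less affected; inactive = any of these conditions unmet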; also: one replicate is shown; some compounds called inactive have numbers as strong as hits
FGF22 binding – binders of recombinant human FGF22 by thermal shift; SYPRO orange fluorescence; percent of sucrose octasulfate shift, DMSO zero; hit rate 1.5% among 340,000; AID 651658; calls only at 9.99 µM;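 active = melting point raised past a set limit in the mean and every replicate; inconclusive = no clear call; three in four hits are not shown here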
Target sequence (Q9HCT0 whole entry, looked up): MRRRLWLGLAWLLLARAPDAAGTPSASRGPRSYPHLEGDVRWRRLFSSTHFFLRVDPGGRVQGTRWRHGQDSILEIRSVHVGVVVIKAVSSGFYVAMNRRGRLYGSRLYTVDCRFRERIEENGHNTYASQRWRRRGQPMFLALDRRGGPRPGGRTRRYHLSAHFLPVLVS
Beta apoptosis – beta cell apoptosis inhibition; INS-1E cytokine-induced death, ATP luminescence, 48 h; percent of positive-control rescue, neutral wells zero; protection from apoptosis, % (concentration not given with the values); hit rate 0.8% among 300,000; AID 435005;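 active = all replicates at 75% or more, or half of them and the mean; inconclusive = half reach 75% but not the mean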;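 also: 0% = cytokine-treated negative control wells and 100% = positive control rescue; higher means more ATP so stronger rescue from cytokine killing; wells of about 40 µL received 100 nL stock; the first replicate is given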
T cruzi repl – T. cruzi replication inhibition; T. cruzi beta-gal in NIH3T3, luminescence, 90 h; inhibition, % (test concentration not listed); hit rate 1.4% among 300,000; AID 1885;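 active = mean inhibition across valid replicates above about 55%, limit read from the data; inconclusive = mean below that limit but half or more replicates reach it; inactive = mean below it, under half of replicates reach it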;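 also: signal also drops with host cell toxicity which is not excluded here; 0% = plate median of DMSO wells and 100% = zero luminescence signal; higher percent means less beta-gal luminescence so fewer parasites; stock transfer was 50 nL into about 50 µL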
ALR inh – inhibitors of human sulfhydryl oxidase ALR; P55789; purified ALR, DTT oxidation, H2O2 HRP-luminol luminescence; inhibition, % (test concentration not listed); hit rate 3.8% among 290,000;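 active = mean and each replicate at 75% or more; inconclusive = only one of the two met; inactive = neither met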;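 also: stock transfer was 7.5 nL into about 7.5 µL; 0% = neutral wells and 100% = wells with inactivated enzyme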
Target sequence (P55789 whole entry, looked up): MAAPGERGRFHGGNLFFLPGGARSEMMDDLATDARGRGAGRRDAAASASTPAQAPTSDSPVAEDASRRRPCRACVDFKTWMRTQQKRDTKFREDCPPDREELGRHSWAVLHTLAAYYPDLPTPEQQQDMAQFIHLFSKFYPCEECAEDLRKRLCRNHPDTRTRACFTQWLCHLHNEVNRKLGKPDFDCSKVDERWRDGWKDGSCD
AF4-AF9 inh – MLL-AF4/AF9 protein interaction inhibition; P42568; AlphaScreen, biotin-AF4 peptide binding to FLAG-AF9; inhibition, % at 10 µM; hit rate 0.47% among 350,000; AID 651704;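 active = every replicate reaching a set inhibition limit, whatever the replicate mean, cut at about 25% in these data; inconclusive = mean inhibition reaches that limit but some replicates miss it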;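 also: 0% = plate neutral control median and 100% = total signal loss; the record names both 10 and 1 µM as test concentration; the first replicate is given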
Target sequence (P42568 whole entry, looked up): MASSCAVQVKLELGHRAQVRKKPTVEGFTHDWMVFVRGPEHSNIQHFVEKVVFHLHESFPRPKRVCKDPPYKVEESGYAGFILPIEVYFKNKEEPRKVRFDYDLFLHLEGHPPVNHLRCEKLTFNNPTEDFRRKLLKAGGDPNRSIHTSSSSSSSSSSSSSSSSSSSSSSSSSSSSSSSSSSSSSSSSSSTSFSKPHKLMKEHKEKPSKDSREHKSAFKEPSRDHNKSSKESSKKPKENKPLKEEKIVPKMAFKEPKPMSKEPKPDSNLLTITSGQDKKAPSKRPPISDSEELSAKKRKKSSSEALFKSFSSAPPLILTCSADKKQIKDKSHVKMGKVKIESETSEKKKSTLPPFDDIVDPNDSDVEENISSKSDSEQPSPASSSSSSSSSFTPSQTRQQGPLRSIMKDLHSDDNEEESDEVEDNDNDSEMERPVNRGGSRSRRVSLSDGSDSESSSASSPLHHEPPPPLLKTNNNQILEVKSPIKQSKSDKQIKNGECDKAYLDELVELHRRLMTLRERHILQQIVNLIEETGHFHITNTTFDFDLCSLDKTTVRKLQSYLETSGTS
Calb FLC – affects C. albicans growth with fluconazole | C. albicans CaCi-2 (fluconazole-resistant clinical isolate) + fluconazole, Alamar Blue growth, 48 h | growth inhibition, % (test concentration not listed) | hit rate 0.57% among 300,000;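 active = most replicates above 75%; inconclusive = exactly half above 75%; inactive = most below 75%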;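 also: all wells also contain fluconazole at 8 µg/ml as a sub-toxic cotreatment; 0% = median of DMSO wells and 100% = median of geldanamycin control wells; wells of about 8 µL received 7.5 nL stock; the first replicate is given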
RanGTP-Impb inh – inhibitors of RanGTP-importin-beta interaction, primary screen, biochemical, FRET, CFP-Ran, YFP-importin-beta, homogeneous | inhibition, % (no concentration beside the values) | AID 2216 | cell-free CFP-Ran/YFP-importin-beta FRET ratio | hit rate 1.1% among 300,000;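 active = most replicates above 15%; inconclusive = exactly half above 15%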;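 also: 0% = DMSO wells and 100% = Ran loaded with GDP instead of GTP; wells of about 40 µL received 100 nL stock; the first replicate is given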
rRNA inh HTS OD600 – second read-out of rRNA inh HTS, no call of its own (marks repeat the call); OD600 change, %; measured here: OD600 growth;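 optical density of the mix in the first replicate; 0 = DMSO median and -100 = no signal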
rRNA inh HTS RFP – further read-out of rRNA inh HTS, marked with its call; RFP signal change, %; measured here: RFP humanized mutant strains;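 first replicate; 0 = DMSO median and -100 = no signal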
Numbers without * were called inactive; i = inactive; ? = inconclusive; · = not tested or not shown; + = active, no number. The list is partial (hit frequency here may not be typical).

SMILES | rRNA inh HTS | rRNA inh HTS OD600 | rRNA inh HTS RFP | FGF22 binding | Beta apoptosis | T cruzi repl | ALR inh | AF4-AF9 inh | Calb FLC | RanGTP-Impb inh
COc1ccc(C(=O)NCc2cnn(C)c2C)cc1OC1CCN(C(C)C)CC1 | 4 | 9 | -0.1 | i | -1 | -1 | -3 | 0.7 | -5 | -0.5
COCCCNC(=O)c1ccc(N2CCOCC2)c(NS(=O)(=O)c2ccc(OC)cc2)c1 | · | · | · | · | 2 | 6 | 0 | · | -12 | 1.9
Cc1ccc(NC(Cc2cc(C)no2)c2ccccc2)cc1 (stereo not drawn) | · | · | · | · | 0 | -8 | · | · | 7 | 8.6
COC(=O)C1=C(CS(=O)(=O)c2ccc(C)cc2)NC(=O)NC1c1ccc(OC)c(OC)c1 (stereo not drawn) | 6 | 13 | 4.9 | i | -4 | 2 | -6 | 0.8 | 5 | 2.0
CCCOc1ccc(S(=O)(=O)NNC(=O)c2cc3ccccc3o2)cc1 | -4 | -5 | 1.5 | i | 3 | 4 | 14 | -1.0 | 25 | 6.6
Cc1cc(N2CCOCC2)ccc1/C=C1\SC(=O)N(C(C)C)C1=O | · | · | · | · | 13 | 19 | · | · | 0 | ?
Cc1ccc(-n2c(SCc3nnc4n3CCC4)nnc2-c2ccccc2)cc1 | · | · | · | · | · | -1 | -2 | · | 1 | 4.0
CC(C)n1c(N2CCCC2)nc2c1c(=O)[nH]c(=O)n2C | -3 | 9 | -6.7 | i | 2 | -10 | 10 | -16 | 4 | 1.5
O=C(O)CN(c1ccc(F)cc1)S(=O)(=O)c1ccc2c(c1)OCCO2 | 3 | -1 | -3.8 | i | -6 | -10 | -4 | -13 | -16 | -2.4
Clc1ccccc1OCCCOc1cccc2cccnc12 | -51 | -76 | -20 | i | -4 | -6 | 3 | 3.7 | -6 | 0.2
Cc1cc(Nc2ccccc2)n(CCOC(=O)COc2ccccc2)n1 | · | · | · | · | -6 | -8 | 98* | · | -2 | 9.7
CCNC(=S)N(CCCN(C)C)Cc1cc2cc3c(cc2[nH]c1=O)OCCO3 | 23 | 7 | -2.8 | i | -3 | -4 | -23 | -1.0 | -3 | -3.7
O=C(COc1ccccc1C(=O)NCc1ccccn1)Nc1ccc(Br)cc1 | -5 | -11 | -1.2 | i | 3 | 0 | 32 | -0.4 | -4 | -1.6
CS(=O)(=O)c1ccccc1-c1nnc(NC(=O)C2=COCCO2)o1 | 3 | 6 | -2.2 | i | -4 | -6 | · | -3.6 | -8 | -0.3
CCC(=O)Nc1cccc(-n2nnnc2SCC(=O)c2ccc(C)c(C)c2)c1 | -22 | -22 | -2.6 | i | 6 | 26 | 2 | 2.6 | -40 | ·
COc1ccc(/C=C2\SC(=S)N(CCC(=O)Nc3ccc(C(=O)O)cc3)C2=O)cc1 | -15 | -11 | -1.9 | i | -2 | -12 | -10 | 2.8 | -4 | 3.4
COc1ccc(CC(=O)N2CC(C)CC(C)C2)cc1 (stereo not drawn) | 4 | -5 | 4.7 | i | 3 | 19 | -4 | 5.0 | -17 | ?
CC1=CC(C2CC(=O)N(c3ccccc3C)C2=O)CC2C(=O)N(c3ccccc3C)C(=O)C12 (stereo not drawn) | 2 | 3 | 2.4 | i | -1 | -17 | -26 | 2.5 | -25 | 3.0
COc1ccc(S(=O)(=O)N2CCC(C(=O)Nc3ccccc3N3CCCC3)CC2)cc1OC | 21 | 19 | 0.3 | i | -1 | 8 | 97* | 6.3 | -12 | -0.5
O=S1(=O)CCOC[C@H](Cc2ccccc2)N1Cc1ccccc1F | -19 | -20 | -16 | i | -6 | -1 | -6 | -5.2 | -6 | 11
CC(C)CC(=O)NC(c1ccccc1)c1c(O)ccc2ccccc12 (stereo not drawn) | -13 | -11 | -3.6 | i | 2 | 14 | -28 | 1.8 | -7 | 6.0
Cc1cccc(C(=O)NN2C(=O)C3C(c4ccccc4)C=CC(c4ccccc4)C3C2=O)c1 (stereo not drawn) | · | · | · | · | 3 | -14 | · | · | -5 | 1.3
O=C(Nc1nnc(C2CC2)s1)C1CC(=O)N(c2ccc3c(c2)OCCO3)C1 (stereo not drawn) | · | · | · | · | 1 | -3 | · | · | 4 | 4.3
CC(OC(=O)c1ccccc1CCc1ccccc1)C(N)=O (stereo not drawn) | -8 | -13 | 1.2 | i | -4 | -13 | 4 | -0.1 | 0 | 4.5
CCOc1cc(C2C(C(=O)O)c3cc(OCC)c(OCC)cc3C(=O)N2C)ccc1O (stereo not drawn) | · | · | · | · | -5 | -18 | 20 | · | -8 | -0.8

Part of the list above, limited to Beta apoptosis, AF4-AF9 inh and Calb FLC.
structure | Beta apoptosis | AF4-AF9 inh | Calb FLC
CC(C)n1c(N2CCCC2)nc2c1c(=O)[nH]c(=O)n2C | 2 | -16 | 4
O=C(O)CN(c1ccc(F)cc1)S(=O)(=O)c1ccc2c(c1)OCCO2 | -6 | -13 | -16
Clc1ccccc1OCCCOc1cccc2cccnc12 | -4 | 3.7 | -6
Cc1cc(Nc2ccccc2)n(CCOC(=O)COc2ccccc2)n1 | -6 | · | -2

Next records.
SMILES | rRNA inh HTS | rRNA inh HTS OD600 | rRNA inh HTS RFP | FGF22 binding | Beta apoptosis | T cruzi repl | ALR inh | AF4-AF9 inh | Calb FLC | RanGTP-Impb inh
O=C(CCC1CCCN(C(=O)Cn2cnnn2)C1)NCc1ccc(F)c(F)c1 (stereo not drawn) | 8 | 15 | 2.7 | i | 2 | 7 | -12 | -0.2 | -1 | 3.1
Cc1nc2ccc(NC(=O)c3ccc(N4C(=O)CCC4=O)cc3)cc2s1 | 13 | 12 | -1.3 | i | -7 | -2 | · | -3.7 | 0 | -5.1
CC(=O)Nc1ccc(NC(=O)CN2C(=O)NC3(CCCCCCC3)C2=O)cc1 | 1 | 2 | 5.8 | i | 5 | · | 10 | 5.0 | · | ·
Cc1nc(N2CCOCC2)c2c3c(sc2n1)CCC3 | -8 | -13 | -1.9 | i | -3 | -7 | 6 | -1.4 | 18 | -0.6
O=c1c2ccccc2nc(/C=C/c2cc(Br)ccc2O)n1CCCO | -12 | -22 | 2.5 | i | -13 | 1 | 55 | 3.5 | 6 | -2.2
COc1ccc(S(=O)(=O)N2CCOCC2)cc1NC(=O)COc1ccccc1 | -3 | -2 | -1.9 | i | -3 | 2 | -9 | 0.8 | -8 | -4.4
CCCCN(C(=O)NC(=O)Nc1c(C)cc(C)cc1C)S(C)(=O)=O | 4 | 9 | 1.4 | i | -5 | 5 | -2 | 3.4 | -7 | -2.9
Cc1cc(-c2nnnn2-c2ccc(F)cc2)no1 | 7 | 23 | 3.5 | i | · | · | -1 | -1.4 | -7 | -0.7
O=C(O)c1cc(S(=O)(=O)N2CCOCC2)ccc1N1CCOCC1 | · | · | · | · | 3 | -13 | -6 | · | 17 | -0.7
Clc1ccc(CN2CCN(c3ccccc3)CC2)cn1 | 19 | 5 | 2.3 | i | -3 | 7 | -9 | -1.1 | -1 | -0.2
O=C(COC(=O)/C=C/c1ccc(Cl)cc1)Nc1ccccc1 | -3 | 4 | -1.5 | · | -2 | -14 | -14 | -4.2 | -6 | 1.7
Cc1c2ccccc2c(C)c2c1ccc1ccccc12 | -32 | -52 | -12 | i | -6 | · | -26 | 1.6 | · | ·
O=C(CN(Cc1ccc(F)cc1)C(=O)CCC(=O)Nc1ccccn1)NCc1ccco1 | · | · | · | · | -5 | 11 | 0 | · | 4 | 1.4
CCc1ccccc1NC(=O)CC1S/C(=N\c2nccs2)N(CC)C1=O (stereo not drawn) | · | · | · | · | 3 | 2 | -3 | · | 0 | -2.4
Cc1ccc(/C=N/n2nnnc2N)cc1[N+](=O)[O-] | · | · | · | · | 2 | -15 | -1 | · | 17 | -1.2
CC(=O)Nc1ccc(S(=O)(=O)NCC(=O)N2CCN(S(=O)(=O)c3cccs3)CC2)cc1 | 16 | 7 | 4.9 | i | 0 | · | · | -0.1 | · | ·
COc1ccccc1NC(=O)C(=O)NCC(c1ccco1)N1CCc2ccccc2C1 (stereo not drawn) | 13 | 9 | 5.8 | i | 0 | 27 | -1 | -2.3 | 1 | 6.4
Cc1ccc2sc(N(CCCN(C)C)C(=O)c3ccc(Br)s3)nc2c1C | -49 | -75 | -20 | i | 16 | 70* | -26 | 9.3 | 41 | 6.7
O=[N+]([O-])c1cccc(S(=O)(=O)Nc2ccc(S(=O)(=O)Nc3nccs3)cc2)c1 | 14 | 4 | 0.2 | + | -8 | -7 | 3 | -3.2 | -3 | -2.1
CC(C)Oc1ccc(C(=O)Nc2ccc(N3CCCCC3)cc2)cc1 | -9 | -4 | -5.7 | i | 0 | 12 | 11 | 5.4 | -4 | 0.1
CC(=O)NC(CCS(C)(=O)=O)C(=O)Nc1ccc(Cl)c(Cl)c1 (stereo not drawn) | 3 | 12 | -6.5 | i | -13 | 0 | -8 | -0.3 | 7 | -0.2
CCCS(=O)(=O)C/C(N)=N/OC(=O)c1ccc(Cl)cc1 | 0 | 0 | 2.8 | i | -3 | -19 | 0 | -3.1 | -9 | 1.0
O=[N+]([O-])c1ccc(O)c(/C=N/Nc2ccc(Cl)nn2)c1 | · | · | · | · | 110* | 84* | -4 | · | 117* | -4.3
COC(=O)c1ccc(-c2nc(O)c3cnccn23)cc1 | · | · | · | · | 1 | -1 | 2 | · | -9 | -1.0
CCCCN1C(=O)/C(=C/C=C2/CC(C)(C)CN2C)SC1=S | · | · | · | · | · | 18 | 72 | · | -4 | ?
COc1ccc(C(=O)C2CCCN(Cc3ccc(C#CCCO)cc3)C2)c(OC)c1 (stereo not drawn) | -8 | -7 | -3.5 | i | 2 | 26 | · | -11 | -2 | -1.9
CNC(=O)c1c(NC(=O)c2cc(-c3cc(C)c(C)cc3O)n[nH]2)sc2c1CCCC2 | · | · | · | · | 9 | -1 | -9 | · | 2 | 0.8
CC(NC(=O)c1noc2c1CCCC2)c1ccccc1 (stereo not drawn) | · | · | · | · | -11 | 4 | -2 | · | 6 | 1.7
COc1ccc(NC(=O)CN(CC(=O)Nc2ccc(OC)cc2)C(C)(C)CO)cc1 | 6 | 4 | 2.5 | i | 2 | 11 | -6 | -2.2 | 5 | -1.6

Full records, quoted from the list. Values in the order: rRNA inh HTS, rRNA inh HTS OD600, rRNA inh HTS RFP, FGF22 binding, Beta apoptosis, T cruzi repl, ALR inh, AF4-AF9 inh, Calb FLC, RanGTP-Impb inh
Results for CCNC(=S)N(CCCN(C)C)Cc1cc2cc3c(cc2[nH]c1=O)OCCO3 = 23, 7, -2.8, i, -3, -4, -23, -1.0, -3, -3.7
Results for CCc1ccccc1NC(=O)CC1S/C(=N\c2nccs2)N(CC)C1=O (stereo not drawn) = ·, ·, ·, ·, 3, 2, -3, ·, 0, -2.4
Results for COC(=O)c1ccc(-c2nc(O)c3cnccn23)cc1 = ·, ·, ·, ·, 1, -1, 2, ·, -9, -1.0
Results for COc1ccc(S(=O)(=O)N2CCC(C(=O)Nc3ccccc3N3CCCC3)CC2)cc1OC = 21, 19, 0.3, i, -1, 8, 97*, 6.3, -12, -0.5
